D2 PAM: positive allosteric modulators of human D2 dopamine receptor. 0.23% of 360,000 active. P14416. AID 624464. DiscoveRx D2 beta-arrestin cells, luminescence, 90 min; 100% = 57 uM dopamine signal. potentiation, % (test concentration not listed); active = potentiation of 50% or more; inconclusive = 30% to 50%; inactive = 30% or less;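 note: compound concentration not given in the record; tested on top of an EC20 dose of dopamine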
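PathHunter D2 cells, attached overnight at 37 deg C, received compound in DMSO plus dopamine at EC20 (50 nM final) for 90 min at 37 deg C. Beta-arrestin recruitment was read as luminescence after 1 h with detection reagent at ambient temperature.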
Sfp inh: inhibitors of Bacillus subtilis Sfp phosphopantetheinyl transferase; 3.5% of 310,000 active; Biochemical Sfp PPTase activity, qHTS; AID 1490; Potency, µM, for inactives: max response, negative = inhibition, usual class: inhibitors; Q9F4F7; active = well fitted inhibition curve with a large enough effect; inconclusive = small, poorly fitted or top-dose-only effect, or another doubt; inactive = no such curve, though single readings can be large or run the other way;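 note: the enzyme is Sfp with the accession as filed and its product quenches rhodamine fluorescence; potency is the fitted concentration of half-maximal effect; 0% = enzyme reaction without inhibitor and -100% = no enzyme wells; top concentration of the series not given in the record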
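Fluorescence-quenching assay with 15 nM Sfp, 5 uM rhodamine-CoA and 12.5 uM BHQ-2-labelled ybbR peptide in pH 7.6 Hepes/MgCl2 buffer. Enzyme was pre-incubated with compound for 15 min at room temperature. Rate was taken from the 30-min fluorescence change (525/598 nm).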
PINK1 modulator: PINK1 expression modulation; 0.2% of 410,000 active; Potency, µM (top dose mostly 76.6 µM), inactives show top-dose activation (PINK1 increase), most hits filed as activators; PINK1 immunofluorescence, high-content cytometry, 24 h; active = well fitted activation curve with a large enough effect; inconclusive = small, poorly fitted or top-dose-only effect; inactive = flat fitted curve, though single readings scatter; cell line not stated here;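 note: potency is the fitted concentration of half-maximal effect; % of control where 0% means no effect; nearly all actives have a fitted effect of over 65% in size; a mitochondrial uncoupler was the plate control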
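A stable cell line was treated with compounds at 5 concentrations for 24 hours, with CCCP as control. PINK1 levels and mitochondrial localization were measured by immunofluorescence with mitochondrial, cell and nuclear markers after fixation, read by laser-scanning cytometry.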
CtBP-E1A inh: blocks the CtBP interaction with E1A | AlphaScreen GST-E1A/His-CtBP binding, 1536-well; hits give low values; control for the full effect not named in the record | activity change, % (concentration not given with the values) | 0.49% of 340,000 active; in the data active means activity change below about -65%; inconclusive means about -30% to -65%; inactive means above about -30%; note: % is set by controls: 0 for no effect and ±100 for the full control effect
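Protein mix (5X: 125 nM each GST-E1A, His-CtBP) was incubated with pinned compound 2 h at 37 deg C in dark, in 50 mM Tris pH 8.0 buffer with 300 mM NaCl. Glutathione donor and nickel acceptor beads followed; AlphaScreen signal read after 1 h.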
D2 agonist: activates the human D2 dopamine receptor | DiscoveRx PathHunter D2 beta-arrestin, luminescence, 90 min; 100% = 57 uM dopamine signal | P14416 | 0.084% of 360,000 active | activation, % (test concentration not listed); in the data active = activation above about 40%; inconclusive = about 15% to 40%; inactive = below about 15%; note: compound concentration not given in the record; the text of the record calls up to 30% inactive
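Agonist mode: compounds alone added to overnight-plated D2 PathHunter cells for 90 min at 37 C, with 57 uM final dopamine (EC100) defining full response. Beta-arrestin recruitment detected by chemiluminescent reagent, read after 1 h at ambient temperature.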
TRPV1 potentiator: human TRPV1 potentiation; 0.02% of 320,000 active; TRPV1-expressing cells, Fluo-8 calcium influx, capsaicin EC20 potentiation; host cell line not named in the record; control for the full effect not named in the record; AID 540277; potentiation, % at 8.33 µM; active means potentiation above 80%; inconclusive means 30% to 80%; inactive means below 30%; note: 0% is about no effect
Target sequence (Q8NER1 whole entry, looked up): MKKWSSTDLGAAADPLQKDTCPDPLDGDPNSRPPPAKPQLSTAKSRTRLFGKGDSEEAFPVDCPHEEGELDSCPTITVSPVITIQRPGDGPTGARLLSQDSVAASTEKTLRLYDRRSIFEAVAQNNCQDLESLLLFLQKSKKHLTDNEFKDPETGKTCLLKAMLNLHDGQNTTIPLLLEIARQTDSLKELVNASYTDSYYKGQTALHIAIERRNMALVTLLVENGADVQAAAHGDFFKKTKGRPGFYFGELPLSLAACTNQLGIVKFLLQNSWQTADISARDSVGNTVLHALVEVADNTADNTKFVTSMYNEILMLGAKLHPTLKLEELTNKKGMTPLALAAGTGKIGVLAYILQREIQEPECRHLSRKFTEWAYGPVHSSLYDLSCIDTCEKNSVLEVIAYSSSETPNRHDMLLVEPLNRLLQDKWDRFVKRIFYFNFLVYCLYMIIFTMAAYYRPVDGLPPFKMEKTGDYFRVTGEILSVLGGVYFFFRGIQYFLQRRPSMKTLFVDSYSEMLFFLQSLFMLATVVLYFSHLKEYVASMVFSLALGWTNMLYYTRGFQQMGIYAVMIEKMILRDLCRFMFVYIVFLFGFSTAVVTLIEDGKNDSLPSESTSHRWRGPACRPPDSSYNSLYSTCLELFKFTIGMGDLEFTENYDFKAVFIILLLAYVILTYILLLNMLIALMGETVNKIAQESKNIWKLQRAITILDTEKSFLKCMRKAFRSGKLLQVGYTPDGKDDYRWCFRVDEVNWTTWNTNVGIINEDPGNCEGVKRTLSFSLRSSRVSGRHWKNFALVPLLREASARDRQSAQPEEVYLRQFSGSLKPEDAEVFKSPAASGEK
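Cells expressing TRPV1 were dye-loaded with Fluo-8 and read kinetically: 10 s baseline, 3 min after compound (agonist portion), then 2 min after EC20 capsaicin (allosteric enhancer portion). Calcium-bound dye fluorescence at 480/520 nm.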
Six1-Eya2 blk: blocks human Six1 binding to Eya2. 0.56% of 360,000 active. AlphaScreen GST-Six1/His-Eya2 binding, biochemical; hits give low values; control for the full effect not named in the record. activity change, % (no concentration beside the values). Q15475+O00167. AID 651725; in the data active = activity change below about -65%; inconclusive = about -30% to -65%; inactive = above about -30%; note: % is set by controls: 0 for no effect and ±100 for the full control effect; compound concentration not given in the record
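Homogeneous AlphaScreen proximity assay pairing GST-Six1 with His-tagged Eya2 (added as 5X mix: 250 nM and 500 nM) in 50 mM Tris pH 8.0, 300 mM NaCl, 1 mM TCEP. Glutathione donor and nickel acceptor beads; 1 h, 37 °C, dark.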
* hit, by the source's call; ? = inconclusive; . = no result given; & = joins results of further samples; [ ] = another dose, or the depositor's remark.

SMILES	D2 PAM	Sfp inh	PINK1 modulator	CtBP-E1A inh	D2 agonist	TRPV1 potentiator	Six1-Eya2 blk
COc1ccc2[nH]cc(CCNC(=S)NC3CCCC3)c2c1	-2	22%	-0.9%	1	-1.3	30	6
Cc1ccc(-c2noc(CSc3ccccc3)n2)cc1	1	-12%	-1.0%	71	-1.0	2	73
COc1ccc(NC(=O)c2cccc(-n3cnnn3)c2)cc1	1	7%	2.6%[38.3 µM]	-3	-1.8	-3	0
COc1ccc(C(=O)NCCN2CCCC2)cc1[N+](=O)[O-]	-11	17%	4.4%	-1	-2.9	12	2
COCCOC(=O)C1=C(C)OC(N)=C(C#N)C1c1cc2cccc(C)c2nc1Cl (stereo not given)	-5	?	5.1%	-2	-4.4	-8	-2
CCOc1ccc(Br)cc1S(=O)(=O)NCc1ccncc1	-5	8%	-0.9%	21	0.5	10	6
Cc1ccc(NC(=O)CN2C(=O)S/C(=C\c3ccc(C(=O)O)cc3)C2=O)cc1	12	-7%	-0.2%	.	1.3	-4	-2
O=C(Nc1ccc2c(c1)OCO2)N1CCN(c2ncc(C(F)(F)F)cc2Cl)CC1	-1	1%	1.9%	-1	-4.7	-26	-9
CCN(CC(=O)Nc1c(F)cccc1F)C(=O)CCSc1ccc(C)cc1	-18	.	-2.8%	15	-6.3	-1	5
O=C(CC(C(=O)O)c1ccc(Cl)cc1)c1ccccc1 (stereo not given)	-6	1%	-1.7%	3	-2.6	-2	8
CC1(C)CC(NC(=O)C(c2ccccc2)c2ccccc2)CC(C)(C)N1	-4	5%	0.0%	0	-5.2	13	-3
Cc1ccc(N2CC(c3nc4ccccc4n3C)CC2=O)cc1C (stereo not given)	-8	8%	1.0%	2	-0.1	5	-3
CN1CCN(Cc2c(O)ccc3c(=O)c(Oc4ccccc4Cl)c(C(F)(F)F)oc23)CC1	-10	21%	1.0%	2	-4.2	17	-1
O=C(CN1C(=O)S/C(=C\c2ccc(Cl)cc2)C1=O)NNC(=O)c1ccccc1O	14	-1%	4.6%	-23	6.3	4	-5
CN(C)CCN(C(=O)CN1C(=O)c2ccccc2C1=O)c1nc2cc3c(cc2s1)OCCO3	2	.	0.1%	2	1.6	-10	-16
CCCCCCCC(=O)N/N=C/c1ccco1	-12	12%	-1.8%	8	-2.7	-20	0
NC(=S)NN=Cc1nccc2ccccc12	-13	.	-3.2%	-94*	14	.	-81*
CC(C)N(Cc1ccccc1)C(=O)COC(=O)CCC(=O)c1ccc(F)cc1	-1	.	0.9%	5	2.3	-10	0
COC(=O)c1c(C)oc2ccc(N(C(=O)c3ccncc3)S(=O)(=O)c3ccc4ccccc4c3)cc12	-5	14%	1.9%	-4	0.0	-23	4
Cc1ccc(CNC(=O)c2cn(C)c(=O)c3c2c2ccccc2n3C)o1	-6	22µM*	-0.2%	-18	1.0	-1	-7
C[C@]12CCC(=O)C[C@@H]1CC[C@@H]1[C@@H]2CC[C@]2(C)C=CC[C@@H]12	6	-13%&-17%	7.3%	6	-2.0	-9	2
CCOc1cc(/C=N/NC(=O)CCn2nc(C)cc2C)ccc1O	-5	2%	-0.2%	-25	-4.1	11	-10
CN(C)c1nc(NCc2ccccc2)nc(N/N=C/c2ccc(Cl)cc2Cl)n1	-19	4%	2.2%	8	-5.2	.	-3
CC(=O)c1cccc(OCC(=O)N2CCN(c3ccc(C(F)(F)F)cn3)CC2)c1	-8	13%	2.9%	7	-0.3	-16	-1
COc1ccc(S(=O)(=O)Nc2ccc3oc(C)c(C(C)=O)c3c2)cc1	10	-23%	0.3%	24	0.3	6	13
Further entries follow:
SMILES	D2 PAM	Sfp inh	PINK1 modulator	CtBP-E1A inh	D2 agonist	TRPV1 potentiator	Six1-Eya2 blk
COc1ccc(NC(=O)[C@H](NC(=O)[C@@H]2Cc3ccccc3CN2)c2ccccc2)cc1	-37	-2%	0.5%	1	-6.3	29	0
CCN(CC)c1ccc(C(=O)OCC(=O)N2CCN(c3ccccc3)CC2)cc1	-1	9%	8.5%	-1	0.2	1	2
C/C(=N/NC(=O)Cc1cccs1)c1ccco1	-11	9%	1.0%	1	0.3	12	-7
CCn1cc(C(=O)N2CCc3ccccc32)c(=O)c2cc(S(=O)(=O)N3CCCCCC3)ccc21	0	-2%	17%[38.3 µM]	-2	-1.3	-3	-2
CCOC(=O)c1cc(NC(=O)c2ccc(Cl)cc2)c(=O)oc1-c1ccccc1	3	0%	11%	7	-1.3	-21	6
Cc1c(NS(=O)(=O)c2ccccc2)cc(Cl)c(O)c1C	62*	?	2.0%	-4	?	0	6
CC(C)(C)N(Cc1ccccc1)C(=O)COC(=O)c1ccc(Br)o1	-4	.	-0.8%	-16	-4.7	-13	0
COc1ccc(S(=O)(=O)N2CCC(C(=O)NCc3ccccn3)CC2)cc1Cl	-1	11%	0.4%	-3	-5.2	25	-11
Cc1ccc(CSCc2nnc(SCC(=O)N3CCN(c4ccccc4)CC3)n2C)cc1	-7	4%	-1.1%	-9	2.8	0	0
COc1ccc(S(=O)(=O)Nc2nnc(C)s2)cc1	-9	-9%	6.0%[38.3 µM]	0	-0.5	15	-1
OC(COCc1cccs1)CN1CCN(c2cccc(Cl)c2)CC1 (stereo not given)	-24	?	5.8%	-9	?	10	-22
Cc1ccc(CCNC(=O)c2nnn(-c3cc(C)cc(C)c3)c2N)cc1	-2	-13%	1.5%	3	-1.7	9	-1
Cn1c(=O)n(CCCOc2ccc(Cl)cc2)c2ccccc21	-6	5%	9.8%	6	-3.0	-24	2
Cn1nc([N+](=O)[O-])nc1S(C)(=O)=O	8	10%	3.8%	-14	-4.3	0	-7
O=C(CCNc1ccc(Cc2ccncc2)cc1)c1cccc([N+](=O)[O-])c1	2	13%	-1.7%	-26	-0.8	12	-15
CCOC(=O)C1(CCCc2ccccc2)CCN(C(=O)Cn2nc(C)nc2C)CC1	-14	29%	-0.1%	-11	-0.8	-6	-6
Cc1c(Cl)c(C(=O)NNC(=S)Nc2ccc(F)cc2)nn1C	-15	13%	0.4%	-24	-3.0	3	-17
COc1cc(C(=O)OCC(=O)NC2CCCCCC2)ccc1OCC(C)C	2	.	8.9%	7	3.0	-33	7
Cc1ccc(CN2CCN(c3cccc4[nH]ccc34)CC2)cc1	-25	-2%	1.8%	-27	?	24	-25
CCOC(=O)C1(CCOc2ccccc2)CCN(Cc2cccn2-c2ncccn2)CC1	-7	-6%	3.8%	0	1.5	1	-11
COc1cccc(-c2cnc3c(NC=O)cc(-c4ccccc4Oc4ccccc4)cn23)c1	-11	.	-0.6%	-12	-4.0	.	-11
O=C1CN(CC(=O)NC2CCCc3ccccc32)CCN1 (stereo not given)	-2	19%	0.0%	3	-6.6	-7	1
O=C(/C(=C(\[O-])c1ccccc1)[n+]1ccc2ccccc2c1)c1ccccc1	-10	-1%	0.0%	-3	1.1	-20	0
COc1ccccc1N1CCN(C(=O)c2ccc(COc3cccc4c3OC(C)(C)C4)cc2)CC1	-23	.	-0.1%	-1	0.9	6	-20
CN(C)c1cccc(C(=O)OCC(=O)NCC2CCCO2)c1 (stereo not given)	2	-9%	0.8%	10	-1.9	11	2

Structures listed so far that contain a nitro group on carbon, in the order listed:
SMILES	D2 PAM	Sfp inh	PINK1 modulator	CtBP-E1A inh	D2 agonist	TRPV1 potentiator	Six1-Eya2 blk
COc1ccc(C(=O)NCCN2CCCC2)cc1[N+](=O)[O-]	-11	17%	4.4%	-1	-2.9	12	2
Cn1nc([N+](=O)[O-])nc1S(C)(=O)=O	8	10%	3.8%	-14	-4.3	0	-7
O=C(CCNc1ccc(Cc2ccncc2)cc1)c1cccc([N+](=O)[O-])c1	2	13%	-1.7%	-26	-0.8	12	-15

Carrying on:
SMILES	D2 PAM	Sfp inh	PINK1 modulator	CtBP-E1A inh	D2 agonist	TRPV1 potentiator	Six1-Eya2 blk
COc1cc(CNC2CCCC2)cc(Cl)c1OCc1ccc(F)cc1	-48	-26%	2.7%	3	-9.9	0	9
O=C(NCc1ccc(-n2cccc2)cc1)c1cccc(F)c1	-8	7%	3.5%	-2	-4.3	8	-7
O=S(=O)(c1ccccc1)N1CCN=C1SCc1c(F)cccc1Cl	-8	-18%	0.5%	1	-4.8	3	3
O=C(CSc1cccc(C(F)(F)F)c1)NCc1ccccc1	-2	2%	5.1%	1	-4.0	-27	17
COc1cc(-c2nc3c[n+](CC(=O)c4ccccc4)ccc3n2C)cc(OC)c1OC	-18	5%	-1.5%	17	-0.1	-3	0
O=C(CN(C(=O)CCC(=O)Nc1nccs1)c1ccc2c(c1)OCCO2)NCc1ccco1	-30	-2%	1.3%	4	-3.9	13	5
O=C(CCN1C(=O)/C(=C/c2ccccc2)SC1=S)NCCc1ccc(O)cc1	-6	25%	0.2%	-3	2.4	16	-1
CC(C)Nc1oc(-c2cccc3ccccc23)nc1C#N	-11	-7%	0.7%[38.3 µM]	-7	-0.5	-11	13
O=C(Nc1ccc(Br)cc1)c1cccc(S(=O)(=O)Nc2ccccn2)c1	10	0%	1.3%	-4	-3.4	-27	?
CCOC(=O)COc1cc2c3c(c(=O)oc2cc1C)CCCC3	-3	10%	1.3%	-2	2.0	25	-8
CC(C)C[C@H]1CNC(=O)C(=O)N1C[C@@H]1CCCN1C[C@H](Cc1ccccc1)N1C[C@H](Cc2ccccc2)N(CCc2ccccc2)C(=O)C1=O	.	.	1.7%	-2	.	.	-1
COc1ccc(NC(=O)C2CCC(C(C)(C)C)CC2)cc1S(=O)(=O)N1CCCCC1 (stereo not given)	3	20%	1.3%	27	-2.3	-3	0
CCOC(=O)c1c(NC(=O)CSc2nnnn2C)sc(C(=O)N(C)C)c1C	-16	7%	1.8%	11	1.1	4	-1
Cc1ccc(OCc2cc(C(=O)N3CCC(Oc4cccnc4)CC3)no2)cc1C	-10	12%	-1.4%	.	4.6	-1	3
CC1=NN(c2ccc(C(=O)O)cc2)C(=O)CC1	-5	4%	-0.4%	13	-4.3	-4	11
Cc1nn(Cc2ccc(Cl)cc2Cl)c(C)c1NC(=O)CCl	8	-10%	-1.1%	-2	0.1	-1	-2
Cc1cccc(-n2cc(CNCCc3nc(C)cc(C)n3)c(-c3cccc(F)c3)n2)c1	-31	3%	-2.0%	-3	-2.1	-5	-1
CC[C@H](C)[C@H](NC(N)=O)C(=O)Nc1ccc(OC)c(Cl)c1	-2	9%	-0.1%	-10	2.1	-10	1
COc1ccccc1CNC(=O)CCNS(=O)(=O)c1ccc2[nH]c(=O)oc2c1	-12	19%	0.5%	-1	-3.2	-22	2
